H5N1 antiviral = MDCK cell protection from H5N1 avian flu | cytopathic effect, luminescence, 72 h; active compounds read high; no value below 0 was filed and about half of the inactive calls have no number; reference of the scale not given here | inhibition, % at 50 µM | 96,000 tested, 0.07% active; in the data active means inhibition above about 25%
An asterisk follows results filed as active; i = inactive. Only part of the results is shown; count on the stated rates, not on these rows.

SMILES | H5N1 antiviral
COc1nc(Oc2ccc(C(=O)O)cc2)nc(Oc2ccc(C(=O)O)cc2)n1 | 0.0
Cc1cccc(NC(=O)N(C)Cc2cccs2)c1 | 1.3
Cc1ccc(OCC(=O)N/N=C/c2ccc([N+](=O)[O-])o2)cc1 | 1.7
CCOC(=O)CNC(=O)CSc1nnc(-c2ccco2)n1N | 0.8
CCOC(=O)c1ccc(S(=O)(=O)N2CCN(CCC#N)CC2)cc1 | 2.9
CCSc1ncccc1-c1nc2ccccc2[nH]1 | i
Cc1ccc2oc(C(=O)NCc3ccc4c(c3)OCO4)c(C)c2c1 | i
CCOc1ccc(C(C)C)cc1S(=O)(=O)Nc1ccc(Cl)cn1 | 0.6
COc1ccc(-n2c(Cc3cccn3C)nnc2SCC(=O)Nc2ccc(Cl)cc2)cc1 | i
COc1ccc(S(=O)(=O)N(C)CC(=O)Nc2ccccc2OC)cc1C | i
CCN(CC)C(=O)C1CCN(S(=O)(=O)c2ccc3oc4ccccc4c3c2)CC1 | 0.3
COCc1cc(=O)[nH]c(Nc2nc3ccccc3o2)n1 | i
CCC(=O)N1CCN(c2nc3ccccc3s2)CC1 | i
CCOC(=O)C1CCCN(C(=O)Cc2c(C(=O)O)[nH]c3ccccc23)C1 (configuration not stated) | i
CC(=O)Nc1ccc(NC(=O)c2oc3cc(C)c(C)cc3c2C)cc1 | i
Cc1cccc(C(=O)Nc2sc(C(=O)N3CCCC3)c(C)c2C#N)c1 | 0.2
CCN(CC)C(=O)CSc1nc2ncccc2[nH]1 | 0.7
Cc1c(NC(=O)c2cnn3cccnc23)c(=O)n(-c2ccccc2)n1C | 1.7
O=c1[nH]c(=S)n(Cc2ccc(F)cc2)c(O)c1C=NCc1cccnc1 | 0.9
Cc1cc2n(n1)C(c1ccsc1)Nc1ccccc1-2 (configuration not stated) | 1.1

Part of the list above in a different format:
> Cc1cccc(C(=O)Nc2sc(C(=O)N3CCCC3)c(C)c2C#N)c1
  H5N1 antiviral = 0.2

> CC(=O)Nc1ccc(NC(=O)c2oc3cc(C)c(C)cc3c2C)cc1
  H5N1 antiviral = i

> O=c1[nH]c(=S)n(Cc2ccc(F)cc2)c(O)c1C=NCc1cccnc1
  H5N1 antiviral = 0.9

> CCN(CC)C(=O)CSc1nc2ncccc2[nH]1
  H5N1 antiviral = 0.7

(cont.)
SMILES | H5N1 antiviral
Cc1nnc(NCCN2CCOCC2)[nH]c1=O | 0.6
COc1ccc(/C=C(/C#N)C(=O)Nc2cccc(C)c2C)cc1C(=O)O | 0.4
O=C(Oc1ccc(-c2cnc3ccccc3n2)cc1)c1ccc(Cl)c([N+](=O)[O-])c1 | 4.3
CCOC(=O)c1c(C)[nH]c(C(=O)OCC(=O)N2c3ccccc3CC2C)c1C (configuration not stated) | i
CCCCOc1ccc(/C=c2\sc3ncnn3c2=O)cc1 | 0.4
COc1cc(Cl)c(S(=O)(=O)NCCCN2CCOCC2)cc1Cl | i
CCCCC(=O)Nc1nc(C)c(-c2csc(Nc3ccccc3OC)n2)s1 | i
COc1ccc(CCNS(=O)(=O)c2ccc(OC)cc2)cc1 | 0.5
O=C(O)C1C2C=CC(C2)C1C(=O)NC(c1ccccc1)c1ccccc1 (configuration not stated) | 0.7
Cc1ccc(NC(=O)Nc2ccc3c(c2)N(C)C(=O)CS3)cc1C | i
CS(=O)(=O)N1CCCC(C(=O)NCc2ccc(F)cc2Cl)C1 (configuration not stated) | i
COc1ccc(C(=O)Nc2cc(OC)cc(OC)c2)cc1 | i
COc1ccccc1N1CCN(CC(O)c2ccc3cc[nH]c3c2)CC1 (configuration not stated) | i
COc1cc2c(cc1OC)-c1nc3ccccc3c(=O)n1C(C)(C)C2 | i
COc1ccc2c(c1)-c1ccccc1S(=O)(=O)N2C(C)=O | i
CCC(=O)Nc1ccc(NC(=O)CSc2nnnn2-c2cccnc2)cc1C | 0.4
CC(C)CCOc1ccc(C(=O)O)cc1 | 0.1
COC(=O)C1CCCN1C(=O)C1CCCN1C(=O)CNC(=O)OCc1ccccc1 (configuration not stated) | 0.9
COC(=O)CN(c1c(C)cccc1C)S(C)(=O)=O | i
CC(C)CCNC(=O)Nc1ccc2c(c1)N(C)C(=O)CS2 | i

Brought forward from above: five compounds; new compounds follow.
SMILES | H5N1 antiviral
CCC(=O)Nc1ccc(NC(=O)CSc2nnnn2-c2cccnc2)cc1C | 0.4
CC(C)CCOc1ccc(C(=O)O)cc1 | 0.1
COC(=O)C1CCCN1C(=O)C1CCCN1C(=O)CNC(=O)OCc1ccccc1 (configuration not stated) | 0.9
COC(=O)CN(c1c(C)cccc1C)S(C)(=O)=O | i
CC(C)CCNC(=O)Nc1ccc2c(c1)N(C)C(=O)CS2 | i
O=C(CSc1nnnn1-c1ccc2c(c1)OCO2)NCc1ccccc1 | 0.7
C/C(=N\O)C(=O)NCCCNCCCN(C)C | 0.7
CCOC(=O)c1[nH]c2ccc(OC)cc2c1C | i
S=C(Nc1ccc2snnc2c1)N1CCN(c2ccccn2)CC1 | i
CC(=O)Nc1ccc(S(=O)(=O)N2CCCCC2c2cccnc2)cc1 (configuration not stated) | 1.6
Cc1ccc2nc(-c3ccccn3)oc2c1 | i
CCOC(=O)C(C(=O)NCc1cccc(OC)c1)c1ncc(C(F)(F)F)cc1Cl (configuration not stated) | 0.9
COc1cc(Br)c(C(C)NC(=O)c2ccc(C)cc2)cc1OC (configuration not stated) | i
COCC(=O)Nc1ccccc1NC(C)=O | 0.9
O=C1CC(C(=O)Nc2ccccc2)N=C(N2CCCCC2)N1 (configuration not stated) | i
C(=N\n1cnnc1)/c1ccc(N2CCOCC2)cc1 | i
COc1ccc(CN2CCSCC2)cc1C | 0.3
c1ccc(CSc2snnc2-c2ccccc2)cc1 | i
O=C(C1CC2CCC1C2)N1CCN(Cc2ccc3c(c2)OCO3)CC1 (configuration not stated) | 1.4
Cc1nn(C(=O)C(C)N2C(=O)c3ccccc3C2=O)c(C)c1Br (configuration not stated) | 0.5
COc1cccc(Oc2ccc(N)cc2)c1 | i
O=S(=O)(Nc1cccc(C(F)(F)F)c1)c1cnc[nH]1 | i
O=C(CCCN1C(=O)CCC1=O)Nc1ccc(Br)cc1F | i
CCC(CC)C(=O)Nc1cccc(C(=O)Nc2ccc3c(c2)OCO3)c1 | 1.1
CSCCC(NC(=O)COc1ccccc1)C(=O)OCC(=O)c1cc2ccccc2o1 (configuration not stated) | i
Cn1c(C(=O)NCCCN2CCN(c3ccccc3F)CC2)cc2c(=O)n(C)c3ccccc3c21 | i
COc1ccc(CCn2c(O)c(C=NCc3cccnc3)c(=O)[nH]c2=O)cc1OC | 0.4
CC(=O)Nc1cc(C(F)(F)F)ccc1N1CCOCC1 | i
CCOC(=O)CSc1nccc(N(C)C)c1C#N | i
O=C(Nc1cccc(Cl)c1)Nc1ccc(Cl)cn1 | 0.3
COC(=O)c1cc(Br)c(=O)n(CCC2=CCCCC2)c1 | i
CCn1cnc2sc(-c3ccccc3)cc2c1=O | i
CN1CCN(C(=O)N2c3ccccc3C=Cc3ccccc32)CC1 | 0.2
O=c1oc2ccccc2n1CSC1=NCCS1 | 8.6
COCCn1nnnc1CN1C2CCCC1CC(NC(C)=O)C2 (configuration not stated) | i
Cc1cc(=O)oc2cc(OCCSCCN3CCOCC3)ccc12 | 0.3
CCn1c(N)c(C(=O)N2CCOCC2)sc1=S | i
O=C(CSc1nnc(-c2ccccc2)n1Cc1ccco1)Nc1ccc2c(c1)OCCO2 | 1.0
O=C(CCC(=O)c1cccs1)Nc1ccccc1F | i
O=S(=O)(O)c1nc2ccccc2n1Cc1ccccc1 | i
C=CCn1c(CCNC(=O)c2ccccc2F)nnc1SCC(=O)Nc1nc(C)cs1 | i
Cc1ccc(-c2ccnc(=S)[nH]2)cc1 | i
CCC(=O)N1CCc2cc(S(=O)(=O)NCCN3CCCCC3CC)ccc21 (configuration not stated) | 0.8
C=CCOc1cccc(C2/C(=C(/O)c3ccc(C)cc3)C(=O)C(=O)N2CCN2CCOCC2)c1 (configuration not stated) | 0.1
CCOc1ccccc1N1CCN(C(=O)Nc2cccc(Cl)c2)CC1 | i
COc1ccc(C2CC(c3cccs3)=NN2C(=O)CSC2=NN3CCCC(=O)N=C3S2)cc1 (configuration not stated) | 6.1
N#CCOC(=O)c1sccc1-n1cccc1 | 3.6
Cc1sc(NC(=O)/C=C/c2ccc(C(C)C)cc2)c(C#N)c1C | 0.1
CC(=O)NC(C)Cc1ccccc1 (configuration not stated) | i
Cc1cccc(-n2ccnc2SCC(=O)Nc2ccc3c(c2)OCCO3)c1 | 0.5
COc1ccccc1C1CC(c2ccc(F)cc2)Nc2ncnn21 (configuration not stated) | 1.0
CCc1cc2c(NCC3CCCO3)ncnc2s1 (configuration not stated) | i
COC(=O)c1cccc(NC(=O)Nc2ccc(Cl)c(Cl)c2)c1 | 2.3
O=C(c1ccc(F)cc1)c1cc2ccccc2o1 | 2.7
Cc1cc(C)n(-c2nnc(C)n2/N=C/c2ccccc2F)n1 | 0.5

(listing goes on)
SMILES | H5N1 antiviral
CCN(CC)C(=O)C1CCCN(Cc2ccc(F)c(F)c2)C1 (configuration not stated) | i
Cc1cc(S(=O)(=O)N(Cc2ccc3c(c2)OCO3)CC2CCCO2)ccc1-n1cnnn1 (configuration not stated) | i
O=C(Nc1nccs1)c1sc2cc(Cl)ccc2c1Cl | i
Cn1c(=NC(=O)C2CC2)sc2cccc(F)c21 | i
CC(Nc1nc(N2CCN(S(C)(=O)=O)CC2)nc2ccccc12)c1ccccc1 (configuration not stated) | i
CC(C)(C)OC(=O)N1CC2Cc3[nH]c(=O)ccc3C(C2)C1 (configuration not stated) | 0.6
O=C(N/C=C\c1ccccc1)NCc1ccc(Cl)cc1Cl | 0.8
C=CCSc1nc2ccccc2c(=O)[nH]1 | 0.6
COC(=O)c1cc(OC)c(OC)cc1NC(=O)c1cc(-c2ccccc2)nc2ccccc12 | i
COc1cccc(N2C(=O)N(c3ccccc3)C3CS(=O)(=O)CC32)c1 (configuration not stated) | 0.1
Cc1cc(COc2ccccc2OCCN2CCN(C)CC2)no1 | 2.0
O=C(CSc1nc2ccccc2[nH]1)N1CCN(c2ccc(F)cc2)CC1 | 1.4
Fc1ccccc1N1CCN(C(c2cccs2)c2nnnn2CCc2ccccc2)CC1 (configuration not stated) | 0.6
O=C(NC(=O)c1ccccc1)NC1(C(F)(F)F)OCCO1 | i
O=C(NCc1ccco1)c1ccc2c(c1)N(Cc1ccccc1)C(=O)CS2=O (configuration not stated) | 1.2
CC(C)NC(=O)Cn1cc(C#N)c2cc(Br)ccc21 | 0.3
O=C(NCc1ccc2c(c1)OCO2)C1CCCN1C(=O)Nc1cccc(F)c1 (configuration not stated) | i
CCn1c(COc2ccccc2OC)nnc1SCC#N | i
COc1cc(C(=O)OCC(=O)Nc2ccc3c(c2)OC(F)(F)O3)ccc1OCc1c(C)noc1C | i
O=c1ncn(-c2ccccc2F)c2ncccc12 | i
COCC(=O)N(Cc1ccccc1)c1ccccn1 | i
CN(C)S(=O)(=O)N1CCN(c2ccc(Cl)cc2)CC1 | 1.1
O=C(CF)NC(Nc1cccc2cccnc12)C(Cl)(Cl)Cl (configuration not stated) | 0.8
Cc1cnc(C(=O)OCC(=O)Nc2ccc(Oc3ccccc3)cc2)cn1 | i
Cc1cc(=O)n2nc(N3CCCC3C(=O)NCCCN3CC(C)CC(C)C3)sc2n1 (configuration not stated) | 0.2
CCN(CC)c1ccc(NC(=O)c2cc(OC)cc(OC)c2)c(C)c1 | i
COC(=O)c1ccc(S(=O)(=O)c2ccc(C(=O)OC)s2)s1 | 0.3
NC(=S)c1ccc(C(N)=S)o1 | 1.0
COc1ccc(-c2nnc(CSc3nc4ccccc4c(=O)n3C)o2)cc1OC | 1.0
CC(=O)OCCNc1cc(N2CCN(C)CC2)c2noc3c2c1C(=O)c1ccccc1-3 | 0.5
CCOC(=O)C1=C(O)C(Nc2nccs2)(C(F)(F)F)N=C1C (configuration not stated) | i
COc1ccc(S(=O)(=O)N2CCN(C(=O)CCC3CCCC3)CC2)cc1 | 2.3
CC1CCN(C(=O)CN(c2ccc(Cl)c(C(F)(F)F)c2)S(C)(=O)=O)CC1 | 0.3
N#CC(c1cccc(C(F)(F)F)c1)(c1ncc(C(F)(F)F)cc1Cl)N1CCOCC1 (configuration not stated) | 1.2
Cc1cc(NC(=O)CSc2nc3ccccc3c(=O)n2Cc2ccc(F)cc2)no1 | 0.4
CCCCn1c(=O)c(-c2ccccc2)c(O)c2ccccc21 | 0.1
CCCCC(CC)CNS(=O)(=O)c1ccc2c(c1)CCN2C(=O)CCC(=O)O (configuration not stated) | i
Cc1ccccc1CS(=O)(=O)c1nnc([C@H](Cc2ccccc2)NC(=O)OC(C)(C)C)o1 | 3.6
CCCCn1c(=O)c2c(O)cc(=O)oc2c2ccccc21 | 2.9
CCOC(=O)c1[nH]c2c(c1C)C(=O)CC(c1ccc(OC)c(OC)c1)C2 (configuration not stated) | 0.1
COc1cc(S(=O)(=O)N2CCN3CCCC3C2)ccc1-n1cnnn1 (configuration not stated) | 1.6
O=C(COC(=O)c1ccc(S(=O)(=O)NCc2ccco2)cc1)NCCC1=CCCCC1 | 0.5
COc1ccc(-c2csc(NC(=O)CCn3cnc4ccccc4c3=O)n2)cc1OC | i
O=C(O)CCn1c(C2CCCCC2)nc2ccccc21 | i
O=C(C(c1ccccc1)c1ccccc1)N1CCOCC1 | i
CCOc1ccc(S(=O)(=O)Nc2ccc(S(=O)(=O)Nc3cc(OC)ccc3OC)cc2)cc1 | 0.4
